# Sa helicase inh: S. aureus DNA helicase inhibition; purified S. aureus helicase, fluorescence unwinding assay; about half of the hits fall short of the stated cut; inhibition, %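 (tested at about 80 µM)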; 0.05% of 120,000 active; AID 485395;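 active = both duplicates at 50% or more, or one of them with a favoured structure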;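 note: 0% = mean of negative control wells and 100% = mean of positive control wells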
# MgrA DNA FP: S. aureus MgrA-DNA binding modulation. fluorescence polarization. inhibition, %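 (about 10 µg/mL by stock and volumes)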. 0.13% of 84,000 active. AID 602314;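 active = above 50% in either of two replicates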;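 note: 0% = protein plus DNA without compound and 100% = DNA alone without protein; higher means less MgrA bound to DNA so lower polarization; one replicate is shown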
# An asterisk follows results filed as active; x = no result given; & = joins results of further samples. This is a subset; the hit share may differ from the screen's.
SMILES,Sa helicase inh,MgrA DNA FP
N#Cc1ccccc1Oc1ccc(Cl)cc1Cl,x,-1.4
Cc1ccc2[nH]c(=O)c3cc(C(=O)N(C)C4CCCCC4)sc3c2c1,7,-0.9
Cc1nc(-c2ccccc2)sc1C(=O)N1CCCc2ccccc21,x,3.3
O=C(NCc1ccccc1Cl)C1CCCN(c2nc3ccccc3o2)C1 (configuration not stated),5,x
Cc1cc2n(n1)SC(Nc1ccc(F)c(Cl)c1)N2 (configuration not stated),-12,1.1
CS(=O)(=O)Nc1ccccc1C(=O)Nc1ccc2c(c1)OCCO2,12,0.3
CC(=O)Nc1ccc(CSc2ccccc2)cc1,3,3.0
CN1CCc2c(OCC(=O)N3CCCc4ccccc43)cccc2C1=O,-13,x
C=CCn1c(=O)c2ccc(C(=O)NCc3ccc4c(c3)OCO4)cc2n(CC(=O)Nc2cc(C)[nH]n2)c1=O,-33,x
CCOC(=O)COc1ccc(C#N)cc1,22,-0.4
COc1ccc(C(=O)NCCc2nc3ccccc3n2CC(C)C)cc1OC,-10,x
O=c1[nH]cnc2c1c(-c1ccccc1)cn2-c1ccccc1,13,x
Cc1cc(C)c(C#N)c(SCC(=O)Nc2nccs2)n1,-5,x
CCCNC(=O)C1CCN(C(=O)c2sccc2-n2cccc2)CC1,5,-1.1
Cc1cc(NC(=O)c2ccc(N3C(=O)CCC3=O)cc2)nc2c1c(=O)oc1ccccc12,-11,x
S=c1nc(-c2ccccc2)n(CC2CCCO2)c2c1CCCC2 (configuration not stated),-5,x
O=C(O)C1c2ccccc2C(=O)N(C2CCCC2)C1c1cccs1 (configuration not stated),12,0.9
CC(NC(=O)c1ccco1)C1CCCO1 (configuration not stated),12,-0.6
Oc1cc(O)c2c(c1)O[C@H](c1ccc(O)c(O)c1)[C@@H](O)C2,x,3.9&4.8
O=C(CCSCc1cccc(Cl)c1)NC1CCCC1,2,x

# In the list so far, these contain an NH in an aromatic ring.
SMILES,Sa helicase inh,MgrA DNA FP
Cc1ccc2[nH]c(=O)c3cc(C(=O)N(C)C4CCCCC4)sc3c2c1,7,-0.9
C=CCn1c(=O)c2ccc(C(=O)NCc3ccc4c(c3)OCO4)cc2n(CC(=O)Nc2cc(C)[nH]n2)c1=O,-33,x
O=c1[nH]cnc2c1c(-c1ccccc1)cn2-c1ccccc1,13,x

# A second format for part of the listing above.
COc1ccc(C(=O)NCCc2nc3ccccc3n2CC(C)C)cc1OC
  Sa helicase inh = -10 | MgrA DNA FP = x

O=c1[nH]cnc2c1c(-c1ccccc1)cn2-c1ccccc1
  Sa helicase inh = 13 | MgrA DNA FP = x

Cc1cc(C)c(C#N)c(SCC(=O)Nc2nccs2)n1
  Sa helicase inh = -5 | MgrA DNA FP = x

CCCNC(=O)C1CCN(C(=O)c2sccc2-n2cccc2)CC1
  Sa helicase inh = 5 | MgrA DNA FP = -1.1

# Additional results follow:
SMILES,Sa helicase inh,MgrA DNA FP
CC(C)Cc1ccc(C(=O)O)cc1,-15,x
CC1CCN(c2nc3c(c(=O)n(C)c(=O)n3C)n2Cc2ccccc2Br)CC1,x,-5.3
CCOC(=O)C1CCCN(CC(O)COC(c2ccccc2)c2ccccc2)C1 (configuration not stated),12,x
COc1ccc(OC)c(C(=O)c2cc(OC)c(OC)c(OC)c2)c1,x,-2.5
CSC(=S)NNC1=NCCC1,6,x
NS(=O)(=O)c1ccccc1Oc1ccc(Cl)cc1Cl,x,-0.5
O=C(/C=C/c1cccc(F)c1)Nc1ccon1,-23,x
COc1ccc(C(=O)Nc2cc(C)c(O)c(S(=O)(=O)c3ccc(Cl)cc3)c2C)cc1,8,-1.3
CCCN1C(=O)c2cc(C(=O)NC3CCCC3)ccc2C1O (configuration not stated),20,-0.9
CC1(C)CC(=O)C=C(Nc2ccc(O)cc2)C1,-29,x

# Part of the list above, set out differently:
Structure	Sa helicase inh	MgrA DNA FP
CCCN1C(=O)c2cc(C(=O)NC3CCCC3)ccc2C1O (configuration not stated)	20	-0.9
NS(=O)(=O)c1ccccc1Oc1ccc(Cl)cc1Cl	x	-0.5
CSC(=S)NNC1=NCCC1	6	x

# Carrying on.
SMILES,Sa helicase inh,MgrA DNA FP
O=C1c2cccnc2C(O)N1Cc1ccccc1 (configuration not stated),-1,x
CC1CCCN(C(=O)c2ccc(NS(=O)(=O)c3cccs3)cc2)C1 (configuration not stated),11,5.7
CCCc1nc2ccccc2c(C(=O)OCC(=O)NC)c1CC,-4,x
NNC(=O)Cc1csc(CC(N)=O)n1,8,x
C[C@]12CCC(=O)C=C1C=CC1C2CC[C@@]2(C)C1CC[C@@]21CCC(=O)O1 (some centres not stated),x,-0.1
OC1CCN(Cc2ccccc2)CC1,x,5.4
O=C(C1CCCO1)N1CCN(C(=S)NCc2ccc(F)cc2)CC1 (configuration not stated),5,0.3
COc1ccc(S(=O)(=O)N2Cc3ccccc3CC2C(=O)N2CCCCCC2)cc1 (configuration not stated),-17,x
CCn1nc(C)cc1C(=O)Sc1ccccc1Cl,x,2.1
Cc1ccc(N/C(N)=N/c2nc(C(F)(F)F)cc(C(F)(F)F)n2)cc1,4,1.9
Cc1cc(=O)n2[nH]c(C(C)(C)C)cc2n1,x,-0.5
O=C(COc1c(Br)cc(Br)c2cccnc12)N1CCNC1=O,-9,x
Cc1ccc(N(CCO)S(=O)(=O)c2ccc(NC3=NS(=O)(=O)c4ccccc43)cc2)cc1,-2,1.2
Cc1ccc(C)c(C(=O)CSc2nnc(-c3cccc(S(=O)(=O)N4CCOCC4)c3)o2)c1,-3,x
C=CCOc1ccc(C(=O)NCC)cc1,10,-0.3
COc1ccc(CCN2C(=O)CC(=O)NC2=S)cc1OC,-3,x
O=c1[nH]nc(SCc2ccc(CSc3n[nH]c(=O)[nH]c3=O)cc2)c(=O)[nH]1,28,x
C=CC(c1ccccc1)C(C(=O)c1ccccc1)N(C)C (configuration not stated),1,x
Nc1ccc(C(=O)Nc2ccccc2)cc1,-7,x
COC(=O)c1sccc1S(=O)(=O)N1CCC2(CC1)OCCO2,-15,x
COc1cccc(/C=N\N2CCN(c3ccccc3OC)CC2)c1,23,x
Cc1sc2nc(CSC(C)C(=O)NC3(C#N)CCCCC3)[nH]c(=O)c2c1C (configuration not stated),-17,x
CCCCC(=O)Nc1ccc(C(=O)NCc2cccnc2)cc1,10,5.2
Cc1nc(-c2ccc(S(=O)(=O)NCc3cccnc3)s2)cs1,x,-1.1
C/C(=N\OC(=O)Nc1c(-c2c(Cl)cccc2Cl)noc1C)c1ccc(F)cc1,x,1.6
Cc1noc(C)c1-c1nc(CN2C(=O)c3ccccc3S2(=O)=O)no1,x,-1.1
Cn1cncc1CC1COC(=O)C1C(O)c1ccccc1 (configuration not stated),x,-0.1
C=CCNC(=O)c1cccc(Br)c1,0,-1.0
Cc1nc(-c2ccccn2)nc(N(C)Cc2ccccc2)c1Cl,x,-1.6
N=C(N)SCc1ccc(F)cc1,x,0.2&-2.4
Cc1cccc(OCCn2c(SCCC(=O)O)nc3ccccc32)c1,-23,x
CC(C)c1ccc(N=C2CC(=O)NN2)cc1,x,-0.5
COc1ccc(-c2oc(N(C(=O)c3cccs3)C(=O)c3cccs3)c(C#N)c2-c2ccc(OC)cc2)cc1,-53,x
Cc1cc(NO)nc(-c2ccc(Br)cc2)n1,13,2.9
CCCn1c2ccccc2c2nnc(SCN3C(=O)c4ccccc4C3=O)nc21,-1,1.0
FC(F)(F)COc1ccc(-c2nc(-c3ccc(Cl)cc3)cs2)cn1,x,0.7
CN(Cc1ccc(Cl)s1)Cn1cnnc1C#N,-14,x
CCOC(=O)N1CCC(NC(=O)c2ccc3c(c2)N=C(CC)c2ccccc2S3)CC1,3,0.4
CCN1CCN(C(=O)C2=CC(c3ccc(F)cc3)=NS(=O)(=O)N2C)CC1,2,x
C=CCOC(=O)C1=C(C)N(CC)C(=O)NC1c1cc2c(cc1Br)OCO2 (configuration not stated),x,-0.4
Cc1cc(S(=O)(=O)NCCN(C)C)c(C)s1,13,x
CC(CS(=O)(=O)c1ccccc1)N1CCOCC1 (configuration not stated),12,-3.2
COc1ccc(Nc2nc(Cl)nc(NCCO)n2)cc1,7,-2.5
Cc1cccc(NC(=O)Cn2cnc3ccccc3c2=O)c1C,0,-3.1
C=C1c2c(Cl)ccc(O)c2C(O)=C2C(=O)[C@]3(O)C(O)=C(C(N)=O)C(=O)[C@@H](N(C)C)[C@@H]3[C@@H](O)[C@H]12,x,-1.5&5.1
N/C(=N\O)c1cnn2c(-c3cccc(C(F)(F)F)c3)ccnc12,x,3.4
COC(=O)c1ccsc1NC(=O)c1ccc(N(C)C)cc1,15,x
CC(NC(=O)C12CC3CC(CC(C3)C1)C2)C(=O)NC1CCCCC1 (configuration not stated),4,x
Cc1csc2ncc(C(=O)NCc3cccs3)c(=O)n12,2,x
O=C(Nc1ccc(N2C(=O)Nc3ccccc3N2O)cc1)c1ccco1,0,x
# The list continues:
SMILES,Sa helicase inh,MgrA DNA FP
O=c1cc(-c2ccccc2)cc(-c2ccccc2)o1,x,-1.3
COc1ccc(NC(=O)c2coc(C)c2)cc1,-2,4.0
NC(=S)c1[nH]nc2c1[nH]c1ccccc12,-2,4.0
COC(=O)c1cc(OC)c(OC)cc1NC(=O)c1ccccc1,x,-2.2
Cc1ccc2oc(-c3ccc(NC(=O)c4ccc5c(c4)OCCO5)cc3O)nc2c1,x,-0.5
O=C(CSC1=Nc2ccccc2C2CC=NN12)Nc1ccc2c(c1)CCC2 (configuration not stated),-16,x
CCOC(=O)c1c(OCC)[nH]c2c1cc(O)c1ccccc12,14,x
CCCC1=NN(C(=O)c2ccc(Cl)cc2)C(=O)C1Cc1c(F)cccc1Cl (configuration not stated),x,0.8
CCCCN(C(=O)c1c(C)oc2ncn(C)c(=O)c12)C1CCN(C(C)=O)CC1,-23,x
Cc1ccc(-c2noc(COC(=O)CCC(=O)c3ccc(Cl)s3)n2)cc1,6,x
N#CC(C#N)=C1C=C2C=C(NCc3ccccc3)CCC2CC1 (configuration not stated),-231,x
COc1ccccc1CNC(=O)CN1CCc2ccccc2C1,-2,x
Cc1cc(C(F)(F)F)nc2ccccc12,-11,-2.0
CN1C(=O)C(O)N(c2ccc(Cl)c(Cl)c2)C1=O (configuration not stated),5,-2.6
Cc1ccnc2nc(C(=O)Nc3ccc(Cl)cc3F)nn12,-17,-5.0
CCOc1ccc(/C=N/n2c(C)csc2=Nc2ccc(C)cc2)c(O)c1,-2,x
Cc1ccc(C(=O)CSc2nc(N)c(C(=O)c3ccc(C)cc3)s2)cc1,x,2.1
N#C/C(=C\O)c1ccc(Cl)cc1Cl,x,2.8
N=C(N)SCc1csc2c1CCCC2,1,-0.5
COc1cccc2c1C(=O)C1C(O)=C3C(=C(O)C1C2=O)C[C@@](O)(C(=O)CO)C[C@@H]3OC1CC(N)C(O)C(C)O1 (some centres not stated),x,1.9
Cc1nn(-c2ccccc2)c(OC(=O)c2cccs2)c1Sc1ccccc1,16,1.9
Cc1nc2ccccn2c1C1(O)C(=O)Nc2c(Cl)cc(Cl)cc21 (configuration not stated),-44,-1.0
CCc1cc2c3c(c(=O)oc2cc1OCC(=O)O)CCCC3,23,x
COc1ccc(-n2c(SCc3ccc(C#N)cc3)nc3ccccc32)cc1,1,x
O=C(c1cccc2ccccc12)N(C1CCCC1)C1CCCC1,5,-2.0
CCCN1Cc2cccc(C(=O)N3CCN(c4ccc(OC)cc4)CC3)c2C1=O,31,x
Cc1ccc2ncc(-c3ccc4cc(C)ccc4n3)cc2c1,14,0.7
COc1ccc(S(=O)(=O)N2CCN(C(=S)NC3CCCCC3)CC2)cc1,16,4.9
C=CCN(Cc1cc(=O)n2ccsc2n1)S(=O)(=O)c1ccc(Cl)cc1,-18,x
CCOC(=O)c1c(NC(=S)Nn2cnnc2)sc2c1CCCCCC2,4,30
Cc1cc2nnc(SCc3ccc(Cl)cc3)n2c2ccccc12,8,1.5
CC(=O)Nc1sc(C)c(C)c1C(=O)OCC(=O)c1cc(C)n(C)c1C,-10,x
CCc1nnc2c(NCC3CCCN3CC)nc3ccccc3n12 (configuration not stated),18,x
Clc1ccccc1C1Nc2ccc3ccccc3c2C2C=CCC21 (configuration not stated),x,2.3
O=C1c2cccc3cccc(c23)C(=O)N1CC1CCCO1 (configuration not stated),x,3.3
CCCN(CCC)C(=O)c1cc(-c2ccc3c(c2)OCO3)nc2ccccc12,5,4.9
O=C(CC(NCCc1ccccc1)C(=O)O)Nc1cccc(Cl)c1 (configuration not stated),-10,x
Cc1cc(NC(=O)Cc2cn3ccsc3n2)n(-c2ccccc2)n1,2,0.4
COC(=O)c1ccc(NC(=O)CSc2nnc(N)s2)cc1,8,-2.0
COc1ccc(C2C(C(=O)O)CC(=O)N2Cc2ccccc2)cc1 (configuration not stated),9,x
COCCN(C(C)=O)c1nnc(-c2cccnc2)s1,2,-0.2
COc1ccc(CN(C)C(=O)C2CC3C=CC2C3)c(OC)c1 (configuration not stated),-5,x
Cc1ccc(CNC(=O)c2cnn(-c3ccccc3)c2-n2cccc2)cc1,-15,x
CC(C)C(NC(=O)c1ccc(Cl)cc1)C(=O)Nc1cccc(-n2cnnn2)c1 (configuration not stated),22,x
COc1ccccc1C1C(C(=O)OCC(N)=O)CCC(=O)N1c1ccc(C)cc1 (configuration not stated),-7,x
O=C(O)CC1(CC(=O)Nc2ccc3sccc3c2)CCCCC1,x,1.0
COc1ccc(C(O)CNc2ccc(C)cc2)cc1 (configuration not stated),2,0.0
O=C1C2C3CC4C1C1C2CC3C41 (configuration not stated),-8,x
CC(=O)Nc1c2c(nn1-c1ccc(C)cc1)CS(=O)(=O)C2,-14,x
CN(C)c1ccc(C2Nc3ccccc3C(=O)N2CCN2CCNC2=O)cc1 (configuration not stated),-17,x
O=c1[nH]n(-c2ccc(S(=O)(=O)N3CCc4ccccc43)cc2)c(=O)c2ccccc12,-31,x
Cc1ccc(-n2ncc3c(=O)[nH]c(SCC(=O)c4ccccc4)nc32)cc1,4,x
